High-throughput results (PubChem)
EPAC2 antag = human EPAC2 antagonism, validation; Q8WZA2; EPAC2 Rap1B BODIPY-GDP exchange, fluorescence; Potency, µM (titrated, usually from 112 µM), for the others: at the highest dose activity, negative = inhibition, most hits filed as inhibitors; 1.7% of 16,000 active; AID 1645886; active = well fitted inhibition curve with a large enough effect; inconclusive = small, poorly fitted or top-dose-only effect; inactive = no such curve, though single readings can be large or run the other way;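 note: 100% = activation by cAMP agonist control; nearly all actives have a fitted effect of over 40% in size; the record reuses the description of the EPAC1 agonist screen; inactives centre near -10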
Target sequence (Q8WZA2 whole entry, looked up): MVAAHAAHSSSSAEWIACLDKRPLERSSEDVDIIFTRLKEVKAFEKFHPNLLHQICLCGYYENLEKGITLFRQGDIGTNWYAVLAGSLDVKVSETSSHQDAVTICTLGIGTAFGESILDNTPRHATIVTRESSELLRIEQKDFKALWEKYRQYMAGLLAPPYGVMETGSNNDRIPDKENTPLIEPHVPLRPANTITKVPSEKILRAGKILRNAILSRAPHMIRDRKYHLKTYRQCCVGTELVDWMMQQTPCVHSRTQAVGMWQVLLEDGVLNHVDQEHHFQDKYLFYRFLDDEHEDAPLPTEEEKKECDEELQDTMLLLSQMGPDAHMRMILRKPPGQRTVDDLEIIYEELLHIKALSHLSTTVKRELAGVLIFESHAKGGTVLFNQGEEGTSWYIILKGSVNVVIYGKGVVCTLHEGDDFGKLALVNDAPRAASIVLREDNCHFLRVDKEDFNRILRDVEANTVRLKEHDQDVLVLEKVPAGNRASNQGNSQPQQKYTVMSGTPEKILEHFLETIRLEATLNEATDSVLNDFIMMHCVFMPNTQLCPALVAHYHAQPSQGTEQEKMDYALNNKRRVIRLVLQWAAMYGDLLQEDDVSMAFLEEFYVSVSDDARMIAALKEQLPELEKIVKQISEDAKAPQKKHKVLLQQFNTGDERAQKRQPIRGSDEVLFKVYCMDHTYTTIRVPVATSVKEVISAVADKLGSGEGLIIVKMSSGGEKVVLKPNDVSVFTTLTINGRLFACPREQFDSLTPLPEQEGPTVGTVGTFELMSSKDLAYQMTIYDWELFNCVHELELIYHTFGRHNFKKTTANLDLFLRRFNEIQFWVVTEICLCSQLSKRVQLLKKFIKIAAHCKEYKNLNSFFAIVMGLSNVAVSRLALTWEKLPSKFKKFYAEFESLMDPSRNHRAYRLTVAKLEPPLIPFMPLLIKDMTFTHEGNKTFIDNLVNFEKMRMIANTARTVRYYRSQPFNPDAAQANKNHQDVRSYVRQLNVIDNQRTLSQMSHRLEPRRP
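Normalized against a 6.5 mM cAMP agonist control, compounds were tested on 100 nM EPAC2 exchanging Rap1B-bound BODIPY-GDP (250 nM) for 50 uM GDP. Fluorescence drop (ex 480, em 540 nm) was tracked at room temperature over 30 min at 5-min intervals.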
Active calls of the source: *; ? = inconclusive; & = joins results of further samples; [ ] = remark or other dose. Potency is the fitted concentration of half-maximal effect.

entry	canonical_smiles	EPAC2 antag
1	COc1ccc(CNC(=O)[C@@H]2CC=C[C@@H]3CCN(Cc4ccc(OC)c(OC)c4)C(=O)[C@@H]32)cc1	-31%
2	Cc1cccc(/C=C\c2ccccc2)n1	?
3	COc1ccc(SC[C@H](Cc2ccccc2)N2CC[C@@H](O)CCC2=O)cc1	-10%
4	COc1ccc(OC)c(-c2cc(Cl)c3c(c2)CC(CNC(=O)c2coc4c2C(=O)CCC4)O3)c1 (stereo not given)	-7%
5	CC(C(=O)O)c1ccc2c(c1)[nH]c1ccc(Cl)cc12 (stereo not given)	?
6	Nc1ncnc2c1ncn2[C@@H]1O[C@H](CO)[C@@H](O)[C@H]1O	7%&-18%&-4%
7	Cc1cc(/C=C/c2ccccc2)nc2ccccc12	?
8	CC(=O)OC1CCC2(C)C(=CCC3C2CCC2(C)C3C[C@@H]3O[C@]32C(C)=O)C1 (stereo not given in full)	-10%
9	NC(=O)C1CCCN(Cc2ccc3c(c2)CN(Cc2ccccc2)CCO3)C1 (stereo not given)	?
10	Cc1[nH]c2c(C(=O)NCC3Cc4cccc(-c5cccnc5)c4O3)cccc2c1C (stereo not given)	2%
11	COc1ccc2[nH]cc(CCNc3nc(-c4ccc(N(C)C)cc4)nc4ccccc34)c2c1	-31%
12	CCCS(=O)(=O)NCc1c(C)ncc2c1CCN(C(=O)c1cccc(C(F)(F)F)c1)C2	-10%
13	Cc1ccsc1C(=O)N(Cc1cc2ccc(F)cc2nc1N1CCC(O)CC1)CC1CCCO1 (stereo not given)	?
14	O=C(O)C(S)C(S)C(=O)O (stereo not given)	3%
15	COC1=C(OC)C(=O)c2ccccc2C1=O	?
16	NC(CSCC(=O)O)C(=O)O (stereo not given)	?
17	Cc1cc(C(=O)NCc2nc(-c3ccccc3NC(=O)C3CCCO3)oc2C)nc(C)n1 (stereo not given)	?
18	CCCCC	-5%
19	O=C(CCCN1CCC(O)(c2cccc(C(F)(F)F)c2)CC1)c1ccc(F)cc1	4%&-18%
20	CC(C)NC(=O)N1CCCC2(CCN(C(=O)c3cccn3C)CC2)C1	-9%
21	COC(=O)c1c(OCc2cccnc2)cc(=O)n2c1CCN(Cc1cc3c(cc1Cl)OCO3)CC2	-2%
22	O=C(c1ccncc1)N1CCC2(CC1)CN(Cc1cc(C(F)(F)F)cc(C(F)(F)F)c1)C2	-6%
23	C[C@H](NC(=O)/C(C#N)=C/c1ccc(O)c(O)c1)c1ccccc1	-6%&-28%
24	C[C@@H](CN(C)C)CN1c2ccccc2Sc2ccccc21	-18%[56.6 µM]
25	CCCCS(=N)(=O)CC[C@H](N)C(=O)O (stereo not given in full)	-16%

Reprinted from the part before: 5 compounds; new compounds follow.
entry	canonical_smiles	EPAC2 antag
21	COC(=O)c1c(OCc2cccnc2)cc(=O)n2c1CCN(Cc1cc3c(cc1Cl)OCO3)CC2	-2%
22	O=C(c1ccncc1)N1CCC2(CC1)CN(Cc1cc(C(F)(F)F)cc(C(F)(F)F)c1)C2	-6%
23	C[C@H](NC(=O)/C(C#N)=C/c1ccc(O)c(O)c1)c1ccccc1	-6%&-28%
24	C[C@@H](CN(C)C)CN1c2ccccc2Sc2ccccc21	-18%[56.6 µM]
25	CCCCS(=N)(=O)CC[C@H](N)C(=O)O (stereo not given in full)	-16%
26	FC(F)(F)c1ccccc1-c1cc(NCCN2CCOCC2)ncn1	-14%
27	CCN1CCCC1CNC(=O)c1cc(S(=O)(=O)CC)c(N)cc1OC (stereo not given)	12%&-15%
28	N#CC[C@H](Cc1ccccc1)N1CC[C@@H](NC(=O)OCc2ccccc2)CCC1=O	-1%
29	CN(C)c1cc(-c2cccc(NS(C)(=O)=O)c2)ncn1	0%
30	Cc1cc(C)nc(NS(=O)(=O)c2ccc(N)cc2)n1	-22%&-15%
31	NC(=O)CCCCC1CCSS1 (stereo not given)	3%
32	COCCN(C)C(=O)c1cnn(-c2nccc(-c3cc(C)sc3C)n2)c1C	-2%
33	O=C(O)CCC(=O)OC[C@@H](NC(=O)C(Cl)Cl)C(O)c1ccc([N+](=O)[O-])cc1 (stereo not given in full)	-4%
34	COc1cc2c(cc1OC)CC(=O)N(CCCN(C)C[C@H]1Cc3cc(OC)c(OC)cc31)CC2	-2%
35	C=C1CCC2C(CC2(C)C)C(=O)CCC1O (stereo not given)	-19%
36	CC(=O)NCCNc1ncncc1-c1ccccc1C	-18%
37	COC(=O)N1CCC2(CC1)CN(C(=O)Nc1ccccc1)C2	-21%
38	Cc1cnc(CNc2nc(-c3cccc(NS(C)(=O)=O)c3)nc3ccccc23)cn1	-11%
39	CCC(O)CNC(=O)c1cnn(-c2ncc3c(n2)-c2ccc(OC)cc2CC3)c1C1CC1 (stereo not given)	?
40	COc1ccc2[nH]cc(CCO)c2c1	-15%
41	CN[C@@H]1[C@@H](O)[C@@H](O[C@@H]2[C@H](O)[C@H](O[C@H]3OC(CN)=CC[C@H]3N)[C@@H](N)C[C@H]2N)OCC1(C)O (stereo not given in full)	20%
42	C[C@]1(Cn2ccnn2)[C@H](C(=O)O)N2C(=O)C[C@H]2S1(=O)=O	3%
43	CNCC(=O)NCC(=O)N[C@@H](Cc1ccccc1)C(=O)N[C@@H](CC(C)C)C(=O)O	-8%[11.4 µM]
44	c1ccc2c(c1)CCC[C@H]2Nc1nc2ccccc2[nH]1	-22%
45	COc1cccc(Nc2ncc3nc(CCc4ccccc4)c(=O)n(Cc4cccs4)c3n2)c1	-7%
46	CN(C)c1ncc2nc(-c3ccc(Cl)cc3)c(=O)n(Cc3cccs3)c2n1	0%
47	Cc1cc(-c2ccnc(-n3ncc(C(=O)N(C)CC(O)c4ccccc4)c3C)n2)c(C)s1 (stereo not given)	-5%
48	COc1ccc2[nH]cc(CCNc3nc(-c4cccc(NS(C)(=O)=O)c4)nc4ccccc34)c2c1	-18%
49	COc1ccc(C(=O)C[n+]2cc(Br)cc(Br)c2)cc1	-15%
50	C=CC[N@@+]12CC[C@@]34c5ccccc5N5/C=C6/[C@H]7C[C@H]8[C@@]9(CC[N@@+]8(CC=C)C/C7=C/CO)c7ccccc7N(/C=C(/[C@@H](C[C@@H]31)/C(=C\CO)C2)[C@H]54)[C@@H]69	-3%[56.6 µM]

Remaining list, next part
No.	SMILES	EPAC2 antag
51	CC(C)=CCc1c(O)cc(C)oc1=O	0%
52	COc1ccccc1-c1nc(N2CCOCC2)c2ccccc2n1	-18%
53	CCO/C([O-])=N/c1c[n+](N2CCOCC2)no1	-22%
54	COC(=O)N1CCC[C@@]2(CCN(c3ccccc3)C2)C1	-36%
55	O=C(O)COc1cccc(-c2ocnc2-c2nc(-c3ccccc3)c(-c3ccccc3)o2)c1	?
56	CC(NNC(=O)c1ccccc1)c1ccccc1 (stereo not given)	35%[activator]
57	COCC(=O)N1CCC[C@@]2(CCN(c3ccccc3)C2)C1	-16%
58	CCCCN1CC[C@H]2C=CC[C@@H](C(=O)Nc3ccc(Cl)cc3Cl)[C@H]2C1=O	?
59	COc1cc(=O)n2c(c1C(=O)NC(C)c1ccco1)CCN(Cc1ccccc1Cl)CC2 (stereo not given)	-6%
60	O=Nc1ccc(/C=C/c2ccnc3ccccc23)cc1	5%
61	Cc1c(C(=O)N(C)Cc2cscn2)sc2ncnc(NC[C@H]3CCc4ccccc4O3)c12	?
62	COCC(=O)N1CCC2(CC1)CN(Cc1ccccc1OC)C2	-29%
63	COc1cccc2ccc(CN3CCC4(CC3)c3ccccc3[C@@H](NC(=O)c3ccccc3)[C@@H]4O)nc12	20%
64	Cn1c(=O)c(-c2cc(F)cc(F)c2)nc2cnc(Nc3ccccc3)nc21	1%
65	O=C1[C@H](Cc2ccccc2)NCCCC[C@@H](c2ccco2)N1Cc1ccccc1	?
66	CO[C@H]1[C@H](NC(=O)C(C)C)c2ccccc2C12CCN(Cc1c(C)nn(C)c1Cl)CC2	-8%
67	COc1ccc(C(=O)N2CCC3(CC2)CN(Cc2ccc(C#N)cc2)C3)cc1	-24%
68	O=C(CCc1nc2ccccc2s1)N1CCOc2ccc(CN3CCc4sccc4C3)cc2C1	8%
69	CC(C)=CCc1c(O)cc2oc(C)cc(=O)c2c1O	-14%
70	COc1ccc(C(C)=O)c(O)c1	-37%
71	COc1c(O)cc2c(=O)oc3c(OC)c(O)cc4c(=O)oc1c2c34	-19%
72	COc1ccc2[nH]cc(CCNc3ccnc(-c4ccc5c(c4)OCO5)n3)c2c1	-29%
73	OC(c1cccnc1)c1ccc2c(c1)CN(Cc1ccc(-c3ccccc3Cl)o1)CCO2 (stereo not given)	-16%
74	COC(=O)N1CCC2(CCN(C(=O)Nc3cccc(F)c3)CC2)CC1	-12%
75	Clc1ccc2c(c1)N=C(N1CCNCC1)c1ccccc1N2	-1%&-7%&-21%
76	COc1cccc(CN2C(=O)NC(C)(C3CCN(Cc4ccc(C)o4)CC3)C2=O)c1OC (stereo not given)	-12%
77	O=C(Nc1ccccc1)N1CCCC2(CCNCC2)C1	-21%
78	CCN(CC)CCOC(=O)c1cc(Cl)c(N)cc1OC	-20%&-15%
79	CC[C@@H]1[C@H]2CCCC(=O)N3CC[C@@H](C[C@@H]1OC(=O)Nc1ccccc1)[C@@H]23	?
80	CCCN1CCC(=O)N([C@H](CO)Cc2ccccc2)CC1	14%
81	CC(=O)/C(C)=N\O	-20%
82	COc1ccc(C(=O)N2CCC3(CCN(C)CC3)CC2)cc1	-13%
83	Cc1[nH]cnc1C[C@H]1CCc2c(C)c3ccccc3n2C1=O	0%
84	CC(C)C1=CC2=CC[C@@H]3[C@](C)(CO)CCC[C@]3(C)C2CC1 (stereo not given in full)	?
85	CO[C@H]1[C@H](NC(=O)c2cccs2)c2ccccc2C12CCN(Cc1cccn1-c1cccnc1)CC2	?
86	CN(C)CCn1nnnc1SCC1=C(C(=O)O)N2C(=O)[C@@H](NC(=O)Cc3csc(N)n3)[C@H]2SC1	4%[56.6 µM]
87	Cc1nc2cncnc2n(Cc2ccc(F)cc2)c1=O	-12%
88	Cc1cccc(/C=C/c2ccccc2)n1	-6%&-5%
89	C=C[C@H](CC(C)C)N(Cc1ccccc1)S(=O)(=O)N(Cc1ccccc1)[C@@H](C=C)CC(C)C	-14%
90	Cc1nc2cnc(Oc3ccccc3)nc2n(-c2ccccc2)c1=O	?
91	CN1CCN(c2ncc3nc(CCc4ccccc4)c(=O)n(C)c3n2)CC1	-2%
92	COC(=O)/C=C/c1cc(F)ccc1S(=O)(=O)NC(C)(C)C	?
93	O=C(Nc1ccc(Cl)cc1Cl)[C@@H]1CC=C[C@@H]2CCN(Cc3ccccc3)C(=O)[C@@H]21	?
94	NC(=S)N/N=C/c1cccnc1	17%
95	COc1cc(OC)c2ccc(=O)oc2c1	-26%
96	COc1ccc(CN2CCC3(CCC(CNC(=O)c4ccnn4C)O3)CC2)c(C)c1C (stereo not given)	-18%
97	COC1C(O)C(CO)OC1n1c(Br)nc2c(=O)[nH]c(N)nc21 (stereo not given)	-14%
98	COC(=O)C[C@H]1c2ccccc2S(=O)(=O)N1c1ccc(N(C)C)cc1	?
99	O=c1c2ccccc2oc2cc(O)c(C3COCC(CO)C(O)C(O)C3O)c(O)c12 (stereo not given)	-16%
100	C[C@@H]1[C@H](c2ccccc2)OCCS(=O)(=O)N1Cc1ccccc1F	?
101	COc1c2c(cc3c1C(CC(=O)c1c(O)c(OC)c4occc4c1OC)[N+](C)(C)CC3)OCO2 (stereo not given)	7%
102	CSC(N)=NCCC[C@H](N)C(=O)O	-3%
103	C=CS(=O)(=O)N(Cc1ccccc1Br)[C@H](CO)CC(C)C	?
104	CC(O)CO (stereo not given)	?
105	C[C@@H](CN=[N+]=[N-])CN1CC[C@H](O)CCC1=O	?
106	CC#CCC(C)[C@H](O)/C=C/[C@@H]1[C@H]2C/C(=C/CCCC(=O)O)C[C@H]2C[C@H]1O (stereo not given in full)	4%
107	CC1(C)CCC(C)(C)c2cc(C(=O)Nc3ccc(C(=O)O)cc3)ccc21	?
108	Cc1ccc(S[C@@H](CCN2CC[C@H](C(C)(C)C)CCC2=O)c2ccccc2)cc1	-21%
109	CN(C)c1ccc(/C=C/c2ccnc3c2ccc2ccccc23)cc1	33%[activator]
110	N=C(N)SCCc1ccc(CCSC(=N)N)cc1	-13%

Reprinted from the part before: 2 compounds, then new ones.
No.	SMILES	EPAC2 antag
109	CN(C)c1ccc(/C=C/c2ccnc3c2ccc2ccccc23)cc1	33%[activator]
110	N=C(N)SCCc1ccc(CCSC(=N)N)cc1	-13%
111	COC(=O)C1=C(C)NC(C)=C(C(=O)OCCCN2CCC(c3ccccc3)(c3ccccc3)CC2)C1c1cccc([N+](=O)[O-])c1 (stereo not given)	-9%&84%
112	N[C@H](CO)C(=O)O	3%&-10%&2%
113	COC(=O)C1N[C@@H]([C@@H](NC(=O)COc2ccccc2)C(=O)NC2CC2)SC1(C)C (stereo not given in full)	?
114	O=C(C[n+]1cccc2cc(Cl)ccc21)c1ccc(I)cc1	-10%
115	CNc1ncnc2c1ncn2[C@@H]1O[C@H](CO)[C@@H](O)[C@H]1O	-1%&-2%
116	CC(=O)O[C@]1(C(C)=O)CC[C@H]2[C@@H]3C=C(Cl)C4=CC(=O)CC[C@]4(C)[C@H]3CC[C@@]21C	-10%
117	COc1ccc(O)c(CN2CCC3(CCC(CNC(=O)C4CCCO4)O3)CC2)c1 (stereo not given)	-32%
118	CN(C)c1ccc(N=NS(=O)(=O)O)cc1	?
119	COc1ccc(-c2coc3c(O)c(OC)ccc3c2=O)cc1	-21%
120	CCN(CC)CCOCCOC(=O)C1(c2ccccc2)CCCC1	7%&6%&-9%&-15%
121	Cc1cc(C)n2nc(C(=O)NCC3Cc4cccc(-c5ccc(S(C)(=O)=O)cc5)c4O3)cc2n1 (stereo not given)	-21%
122	OCC1CCCN(c2nc3cc4c(cc3cc2CNCc2cccc(C(F)(F)F)c2)OCO4)C1 (stereo not given)	5%
123	COc1cc(O)c(C(=O)/C=C/c2ccc(OC)c(O)c2)c(OC)c1	-27%
124	CC(=O)N1CCC2(CCCN(Cc3cc(C(F)(F)F)cc(C(F)(F)F)c3)C2)CC1	?

Only part of the results is shown. The share of hits here may be higher or lower than overall.
